# Source: PubChem (National Center for Advancing Translational Sciences (NCATS))
# 2A StopGo: High Throughput Screening for Foot and Mouth Disease Virus Antivirals. human cells with a luciferase reporter of 2A StopGo recoding; control for the full effect not named in the record. Potency, µM (highest dose often 57.9 µM), for the others: at the highest dose signal change, negative = less light. actives 1.2% (n = 410,000); active = well fitted falling curve with a large enough effect; inconclusive = small, poorly fitted or top-dose-only effect; inactive = no such curve, though single readings can be large or run the other way; tested in HEK293T cells; also: % is scaled to controls: 0 for no effect and ±100 for the full control effect; nearly all actives have a fitted effect of over 45% in size; luciferase light after 4 h
# Lassa entry inh: qHTS for Inhibitors of binding or entry into cells for Lassa Virus. Lassa virus pseudotype entry inhibition, cell reporter; control for the full effect not named in the record. Potency, µM (titrated, usually from 37.9 µM), inactives show at the top dose activity change, negative = inhibition, usual class: inhibitors. actives 1.2% (n = 300,000). AID 540256, 2011; active means well fitted inhibition curve with a large enough effect; inconclusive means small, poorly fitted or top-dose-only effect, or effect the other way; inactive means flat fitted curve, though single readings scatter; tested in HEK293 cells; also: % is scaled to controls: 0 for no effect and ±100 for the full control effect; nearly all actives have a fitted effect of over 50% in size; luciferase read-out
# MARV entry inh: qHTS for inhibitors of binding or entry into cells for Marburg Virus; actives 1.8% (n = 300,000); Marburg virus pseudotyped entry inhibition, cell reporter; control for the full effect not named in the record; about a third of the inactives were read at about 46 µM; Potency, µM (top dose mostly 37.8 µM), without a hit: at the highest dose activity change, negative = inhibition, actives largely listed as inhibitors; active = well fitted inhibition curve with a large enough effect; inconclusive = small, poorly fitted or top-dose-only effect, or effect the other way; inactive = flat fitted curve, though single readings scatter; tested in HEK293 cells; about a fifth of its hits are not listed in these tables; also: % is scaled to controls: 0 for no effect and ±100 for the full control effect; luciferase read-out
# SARS PLpro yeast: qHTS of Yeast-based Assay for SARS-CoV PLP; S. cerevisiae expressing SARS-CoV PLpro, growth rescue; control for the full effect not named in the record; Potency, µM (highest dose often 32.9 µM), without a hit: at the top dose activity, positive = growth rescue; actives 0.19% (n = 330,000); active means well fitted rising curve with a large enough effect; inconclusive means small, poorly fitted or top-dose-only effect; inactive means no such curve, though single readings can be large or run the other way; also: 0% is about no effect; nearly all actives have a fitted effect of over 55% in size; growth read by luminescence after 48 h
# Cruzain inh noDet: qHTS Assay for Promiscuous and Specific Inhibitors of Cruzain (without detergent); Cruzipain (Trypanosoma cruzi), P25779; purified cruzain, Z-FR-AMC fluorescence, no detergent; Potency, µM, inactives show max response, negative = inhibition, most hits filed as inhibitors; actives 2.3% (n = 200,000); AID 1476, 2009;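 also: plate controls were enzyme without inhibitor for no effect and buffer without enzyme for full effect; nearly all actives have a fitted effect of over 40% in size; top concentration of the series not given in the record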
# Target sequence (P25779 123-467 limits assumed): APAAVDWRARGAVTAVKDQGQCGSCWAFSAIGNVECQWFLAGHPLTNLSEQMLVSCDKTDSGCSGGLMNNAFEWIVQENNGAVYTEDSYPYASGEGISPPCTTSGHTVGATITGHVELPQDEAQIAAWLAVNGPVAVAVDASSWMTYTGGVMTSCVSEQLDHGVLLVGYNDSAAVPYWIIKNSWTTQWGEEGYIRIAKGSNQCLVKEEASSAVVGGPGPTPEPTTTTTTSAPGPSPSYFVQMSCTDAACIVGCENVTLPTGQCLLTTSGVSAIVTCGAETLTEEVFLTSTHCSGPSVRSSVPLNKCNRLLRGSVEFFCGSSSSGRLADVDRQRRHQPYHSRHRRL
#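 Purified cruzain at 1.5 nM, pre-incubated 15 min with compound at room temperature in 100 mM sodium acetate pH 5.5, 5 mM DTT, 0.00005% Triton X-100. Reaction started with 2 uM Z-FR-AMC; AMC fluorescence increase over 60 s gives rate.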
# NS1 inh: qHTS Assay for Inhibitors of Influenza NS1 Protein Function; actives 0.4% (n = 270,000); AID 2326, 2010; S. cerevisiae slowed by influenza A NS1, growth recovery by OD600; Potency, µM (top dose mostly 46.1 µM), inactives show at the top dose activity, positive = more growth; active means well fitted rising curve with a large enough effect; inconclusive means small, poorly fitted or top-dose-only effect; inactive means no such curve, though single readings can be large or run the other way; also: nearly all actives have a fitted effect of over 50% in size
#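 Read-out: OD600 growth recovery of NS1-expressing budding yeast. Cells grown overnight at 30C in -URA glucose medium, washed, resuspended and diluted 1:100 in 2% galactose assay medium, pH 6.0. Same strain lacking NS1 served as positive control.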
# RE007 growth inh: qHTS Assay for Inhibitors of the HIV-1 protein Vpr | S. pombe RE007 Vpr strain, BacTiter-Glo ATP luminescence, 24 h; control for the full effect not named in the record | Potency, µM (titrated, usually from 92.2 µM), for the others: at the highest dose activity change, negative = less growth | actives 0.21% (n = 360,000) | AID 651644, 2012; active = well fitted falling curve with a large enough effect; inconclusive = small, poorly fitted or top-dose-only effect; inactive = no such curve, though single readings can be large or run the other way;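 also: % is scaled to controls: 0 for no effect and ±100 for the full control effect; nearly all actives have a fitted effect of over 50% in size; the assay follows cell death caused by Vpr and the record does not say whether a fall means rescue or toxicity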
#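 Fission yeast strain RE007, carrying one chromosomally integrated HIV-1 vpr copy, was seeded at OD 0.01 in PMG+AL medium with 23 nL pinned compound. After 24 h at 30 °C and 99% humidity, viability was read by BacTiter-Glo luminescence.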
# Cruzain Triton: qHTS Assay for Promiscuous and Specific Inhibitors of Cruzain (with detergent) | Cruzipain (Trypanosoma cruzi), P25779 | purified cruzain, Z-FR-AMC fluorescence, 0.01% Triton | Potency, µM, for the others: max response, negative = inhibition, hits mostly inhibitors | actives 0.43% (n = 200,000) | AID 1478, 2009;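 also: plate controls were neutral wells for no effect and buffer without enzyme for full effect; nearly all actives have a fitted effect of over 40% in size; top concentration of the series not given in the record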
#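 Compounds were screened in titration against cruzain (1.5 nM) with 0.01% Triton X-100 to counter colloidal aggregation. Activity was the AMC fluorescence increase over 60 s after adding 2 uM Z-FR-AMC at pH 5.5.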
# * marks the source's active call; other numbers are inactive results; ? = inconclusive; · = no result given; [ ] = dose if it differs, or a comment. Unless noted, calls follow the shape of the dose curve; as a rule, active = well fitted curve in the direction sought with a large enough effect; inconclusive = small, poorly fitted or top-dose-only effect, or another doubt; inactive = no such curve, though single readings can be large; an effect the other way counts as inactive or inconclusive. Potency is read from the fitted curve at half-maximal effect.
Compound	RE007 growth inh	Cruzain inh noDet	Cruzain Triton	SARS PLpro yeast	Lassa entry inh	NS1 inh	2A StopGo	MARV entry inh
COc1ccc(OC)c(C2=NOC(C(=O)N3CCCc4ccccc43)C2)c1 (stereo unspecified)	6%	9%	-2.1%	4%	4%	-117%	-4%	17%
O=C(NCc1cccnc1)C1CC(c2ccc(F)cc2)=NO1 (stereo unspecified)	4%	-4%	2.4%	3%	?	-5%	-9%	18%
Cc1cc2nn(-c3cccc4ccccc34)nc2cc1NC(=O)c1cccs1	-22%	?	-5.9%	-6%	-8%	-7%	-9%	?
CC1(C)OC1COc1c2ccoc2cc2oc(=O)ccc12 (stereo unspecified)	19%	·	·	-1%	·	-5%	-4%	·
CCOc1ccc(C2=NNC(c3cccnc3)=Nc3ccc(OC)cc32)cc1	11%	·	·	-1%	·	6%	0%	·
O=C(NNc1c2ccccc2nc2ccccc12)c1cccc(O)c1	-20%	-27%	-9.1%	-9%	-9%	-12%	0%	?
CCOC(=O)C(C)Oc1cccc2c(=O)n(CC(=O)NCc3ccco3)ccc12 (stereo unspecified)	4%	-7%	-2.1%	20%	·	-82%	-12%	·
OC1CCNC(=S)N1c1ccccc1 (stereo unspecified)	-9%	·	·	5%	4%	·	7%	25%
O=S(=O)(N1CCCCC1)N1CCN(c2ccccc2F)CC1	-15%	10%	-2.3%	-3%	-6%	-60%	·	-1%
COc1ccc(CC(=O)Nc2ccc(-c3nc4cc(C)ccc4o3)c(O)c2)cc1OC	12%	?	-29%	7%	0%	?	20%	9%[46.1 µM]
CCN1CCN(C(c2ccc(C)cc2)c2sc3nc(-c4ccco4)nn3c2O)CC1 (stereo unspecified)	·	-3%	2.0%	·	10%[46.1 µM]	·	9%	·
CCCCc1ccc2[nH]cc(CCN)c2c1	-2%	-4%	-2.4%	4%	?	13%	·	?
Cc1ccc(NC(=O)CN2C=NS(=O)(=O)c3ccccc32)c(C)c1	·	-8%	0.8%	·	28%[46.1 µM]	·	16%	·
CCOc1ccc(CNS(=O)(=O)c2c(C(=O)N3CCCC3)c(C)n(C)c2C)cc1OC	2%	·	·	3%	-1%[46.1 µM]	3%	-3%	14%[46.1 µM]
CN(C)C(CNC(=S)Nc1cccc(Cl)c1)c1ccccc1 (stereo unspecified)	-14%	·	·	-8%	?	·	68%[activator]	?
O=C(c1cccs1)N1CCN(c2ncc(Br)cn2)CC1	-27%	·	·	0%	·	2%	0%	·
CN(CC(=O)Nc1cccc(F)c1)C(=O)c1ccccc1OCCOc1ccccc1	8%	·	·	1%	?	·	-16%	-7%
COc1ccc(N2C(=O)C3C(C2=O)C2C=CC3C23CC3)c(OC)c1 (stereo unspecified)	-9%	3%	2.9%	2%	-5%	-4%	-8%	14%[46.1 µM]
Cc1ccc(-n2c(C)nc3c(cnn3-c3ccc(F)cc3)c2=O)cc1C	-3%	1%	-3.6%	-3%	-14%	-31%	?	5%
Cc1c(C(=O)NCCSCc2c(Cl)cccc2Cl)cccc1[N+](=O)[O-]	10%	-3%	-3.7%	-13%	-21%	-5%	-3%	-3%
Cc1cc(=O)n(Cc2ccc(Cl)cc2)c2c1c(C)nn2-c1ccccc1	·	1%	-2.1%	·	2%[46.1 µM]	·	-10%	·
CN(C)c1cc[n+](CC(=O)Nc2ccc(Cl)cc2)cc1	-33%	·	·	3%	·	-8%	-36%	·
Cc1ccc(C)c(N2CCN(C(=O)c3ccc(NC4=NC5CS(=O)(=O)CC5S4)cc3)CC2)c1 (stereo unspecified)	1%	·	·	-4%	·	18%	0%	·
CN(C)c1ccc(N=Cc2nc(-c3ccccc3)oc2OC(=O)c2cccc(Br)c2)cc1	2%	25µM*	-21%	-19%	5%	4%	-26%	-17%
CCOC(=O)c1c(NC(=O)Cn2nc(C(F)F)cc2C(F)F)sc(C)c1C	-1%	-1%	-6.7%	5%	-29%	4%	-23%	?
COc1ccc(Br)cc1CNC(=O)CSc1cc(=O)n(C)c2ccccc12	·	-3%	-1.0%	·	14%[46.1 µM]	·	-9%	?
COc1ccc(C(=O)NNC(=O)CSc2nnc(COc3ccccc3OC)n2C)cc1	16%	0%	-1.0%	-3%	4%	?	0%	-8%
Cc1n[nH]c(=O)nc1NCCN(C)C	-8%	-6%	6.0%	2%	15%	-1%	-20%	1%[46.1 µM]
Cn1cc(/C=N\NC(=O)c2cccs2)c2ccccc21	-4%	·	·	1%	?	·	81%[activator]	?
CC1(C)OC(=O)N(CC(=O)Nc2cccc(C(F)(F)F)c2)C1(C)O (stereo unspecified)	1%	·	·	-5%	·	·	6%	1%[46.1 µM]
Cn1c(C(=O)NCCCN2CCCCC2)cc2sccc21	-8%	1%	9.6%	0%	7%	-11%	8%	-8%
Fc1ccc(CSc2nc3ncccc3[nH]2)cc1	4%	-3%	0.4%	-26%	?	-47%	-20%	?
O=C(c1ccc(Cl)cc1)N1CCCC(C(=O)N2CCCCC2)C1 (stereo unspecified)	1%	·	·	17%	·	-1%	4%	·
CCC1(CC)C(=O)NC(=O)N(CCc2ccccn2)C1=O	-8%	·	·	·	22%[46.1 µM]	·	0%	19%[46.1 µM]
COc1ccc(C)cc1NC(=O)C(OC(=O)c1cccc(S(=O)(=O)N(C)c2ccccc2)c1)c1ccccc1 (stereo unspecified)	0%	7.9µM*	1.7%	-5%	0%	0%	-13%	?
COc1ccc(OC)c(NC(=O)CN2C(=O)COc3ccc(C)cc32)c1	1%	·	·	0%	·	11%	-10%	·
CCOC(=O)c1c(C)oc2nc(C)nc(NCc3ccc(F)cc3)c12	·	-10%	-1.6%	·	15%[46.1 µM]	·	-20%	·
O=C(CCN1C(=O)c2ccccc2S1(=O)=O)Nc1ccc(Cl)cc1	-6%	·	·	2%	-21%[46.1 µM]	3%	15%	25%[46.1 µM]
CCOC(=O)C1CCN(C(=S)Nc2ccc(CC)cc2)CC1	9%	·	·	23%	?	·	66%[activator]	-10%[46.1 µM]
O=C(CSc1ccc(-c2ccc(F)cc2)nn1)N1CCOCC1	-6%	·	·	-3%	19%[46.1 µM]	·	30%	?
O=C(Nc1ccnn1C1CCN(C(=O)c2ccc(Cl)cc2)CC1)C1CC1	0%	·	·	-1%	·	-4%	-12%	·
O=C(NCc1cccc(C(F)(F)F)c1)C1CCCN(c2cnccn2)C1 (stereo unspecified)	4%	·	·	-3%	·	-8%	-8%	·
CCCc1nc(SCC(=O)Nc2nnc(CC)s2)c2c(=O)n(C)c(=O)n(C)c2n1	-3%	·	·	-4%	·	-2%	?	·
Cn1c(=O)[nH]c(=O)c2c1nc(N1CCCCC1)n2CCCSc1nnnn1-c1ccccc1	-24%	8%	-5.2%	-21%	-11%	-4%	-6%	-7%
COCCn1c(=N)c(S(=O)(=O)c2ccc(F)cc2)cc2c(=O)n3ccccc3nc21	-4%	·	·	-3%	·	0%	-5%	·
O=C(c1ccc2c(c1)OCCO2)C1CCN(C(=O)Nc2ccc(F)cc2)CC1	3%	·	·	-5%	-1%	-1%	-8%	8%[46.1 µM]
CCC(C)NCCOCCOc1ccc(C)cc1Br (stereo unspecified)	-13%	-10%	-3.6%	-2%	-17%	-46%	-1%	?
Cc1ccccc1OCC(=O)Nc1ccc(N2CCN(S(C)(=O)=O)CC2)cc1	8%	?	8.3%	16%	-5%	-1%	-12%	-3%
O=C(NC1CCCC1)C(c1ccc(F)cc1)N(C(=O)c1csnn1)c1ccccc1 (stereo unspecified)	-21%	·	·	-1%	0%	8%	-1%	-17%[46.1 µM]
Cc1ccc(C(=O)/C=C2/NC(=O)CS2)cc1	-7%	-8%	-9.5%	-22%	10%	-16%	51%[activator]	24%
COc1ccc(-c2cn3c(n2)sc2cc(C(=O)NCCCN4CCCCCC4)ccc23)cc1	·	1%	-2.1%	·	-2%[46.1 µM]	·	16%	·
CC(C)Cn1c(=O)c2ccccc2n2c(CCC(=O)Nc3ccc(F)c(F)c3)nnc12	·	-3%	0.5%	·	·	·	-11%	?
CNC(=O)c1ccc2c(c1)nnn2C	-10%	7%	0.7%	-1%	-5%	7%	-5%	3%
CCC(=O)NC(=S)Nc1ccccc1C(=O)NC1CCCCC1	7%	8%	-2.8%	-13%	19%	21%	-8%	?
CCN(CC)S(=O)(=O)c1ccc(NC(=O)c2ccc(NS(C)(=O)=O)cc2)cc1	11%	-2%	-2.4%	1%	-23%	-7%	-18%	8%
COc1cc(NC(=O)CN(c2ccc(C)cc2)S(=O)(=O)c2c(C)noc2C)cc(OC)c1	-9%	·	·	9%	?	26%	?	?

# Carrying on:
Compound	RE007 growth inh	Cruzain inh noDet	Cruzain Triton	SARS PLpro yeast	Lassa entry inh	NS1 inh	2A StopGo	MARV entry inh
O=C(NCc1cccc(Cl)c1)C1CCN(S(=O)(=O)c2ccc(F)cc2)CC1	2%	·	·	1%	·	-6%	17%	·
Cc1cc(NC(=O)c2cc(C(C)(C)C)oc2C)no1	8%	·	·	-2%	·	-1%	18%	·
O=C(N/N=C/c1ccco1)c1ccccn1	?	5%	-2.7%	-3%	3%	-17%	·	?
COc1ccc2c(CC(=O)Nc3nnc(C4CC4)s3)coc2c1	0%	?	13%	-1%	6%	6%	6%	-1%
COc1cccc(Nc2nc3ccc(OC)cc3s2)c1	?	·	·	-14%	?	·	42%[activator]	?
C=CCNc1nc(C(=O)OCC(=O)Nc2cc(S(C)(=O)=O)ccc2Cl)cs1	-6%	·	·	1%	6%	·	13%	25%
COc1ccc(/C=N/NC(=O)c2c([N+](=O)[O-])c(C)nn2C)cc1	1%	-16%	-8.2%	7%	9%	9%	-3%	-11%
